Compound activity deposited in PubChem BioAssay by Broad Institute.
ALR H2O2 inh – inhibitors of human sulfhydryl oxidase ALR; purified ALR, DTT oxidation, H2O2 HRP-luminol luminescence; inhibition, % (no concentration beside the values); 290,000 tested, 3.8% active; AID 485317;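 active = mean and each replicate at 75% or more; inconclusive = only one of the two met; inactive = neither met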;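 also: stock transfer was 7.5 nL into about 7.5 µL; 0% = neutral wells and 100% = wells with inactivated enzyme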
Target sequence (P55789 whole entry, looked up): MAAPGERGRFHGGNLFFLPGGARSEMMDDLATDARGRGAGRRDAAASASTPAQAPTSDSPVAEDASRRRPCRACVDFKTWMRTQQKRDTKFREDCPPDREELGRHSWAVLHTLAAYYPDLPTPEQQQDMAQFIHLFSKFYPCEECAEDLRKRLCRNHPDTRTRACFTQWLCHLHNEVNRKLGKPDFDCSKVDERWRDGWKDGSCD
Beta cell apopt – beta cell apoptosis inhibition | protection from apoptosis, % (test concentration not listed) | AID 435005 | INS-1E cytokine-induced death, ATP luminescence, 48 h; percent of positive-control rescue, neutral wells zero | 300,000 tested, 0.8% active;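 active = all replicates at 75% or more, or half of them and the mean; inconclusive = half reach 75% but not the mean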;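 also: 0% = cytokine-treated negative control wells and 100% = positive control rescue; higher means more ATP so stronger rescue from cytokine killing; wells of about 40 µL received 100 nL stock; the first replicate is given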
AF4-AF9 inh – inhibitors of human MLL-AF4/AF9 interaction; AlphaScreen, biotin-AF4 peptide binding to FLAG-AF9; inhibition, % at 10 µM; 350,000 tested, 0.47% active; AID 651704;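 active = every replicate reaching a set inhibition limit, whatever the replicate mean, cut at about 25% in these data; inconclusive = mean inhibition reaches that limit but some replicates miss it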;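 also: 0% = plate neutral control median and 100% = total signal loss; the record names both 10 and 1 µM as test concentration; the first replicate is given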
Target sequence (P42568 whole entry, looked up): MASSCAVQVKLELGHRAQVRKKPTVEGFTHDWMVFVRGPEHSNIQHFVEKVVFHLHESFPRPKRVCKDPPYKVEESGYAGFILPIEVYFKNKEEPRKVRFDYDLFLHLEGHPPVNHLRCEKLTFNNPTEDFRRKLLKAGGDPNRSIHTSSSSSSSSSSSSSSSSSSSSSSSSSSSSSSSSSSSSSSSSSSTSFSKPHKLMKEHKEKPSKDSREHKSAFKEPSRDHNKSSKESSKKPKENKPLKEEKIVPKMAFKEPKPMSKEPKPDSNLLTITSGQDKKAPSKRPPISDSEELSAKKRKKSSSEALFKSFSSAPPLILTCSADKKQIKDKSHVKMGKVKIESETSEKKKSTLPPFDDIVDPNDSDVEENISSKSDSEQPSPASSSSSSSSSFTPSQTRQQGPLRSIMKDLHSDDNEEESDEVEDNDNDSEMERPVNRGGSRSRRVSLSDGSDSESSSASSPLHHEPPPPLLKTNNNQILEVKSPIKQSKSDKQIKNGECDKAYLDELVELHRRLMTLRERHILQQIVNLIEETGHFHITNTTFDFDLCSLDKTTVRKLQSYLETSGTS
RanGTP-Impb inh – disruptors of Ran-importin-beta complex formation – biochemical, FRET, CFP-Ran, YFP-importin-beta, homogeneous, primary screen; inhibition, % (no concentration beside the values); AID 2216; 300,000 tested, 1.1% active; cell-free CFP-Ran/YFP-importin-beta FRET ratio;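 active = most replicates above 15%; inconclusive = exactly half above 15%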;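 also: 0% = DMSO wells and 100% = Ran loaded with GDP instead of GTP; wells of about 40 µL received 100 nL stock; the first replicate is given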
Calb FLC – affects C. albicans growth with fluconazole | 300,000 tested, 0.57% active | C. albicans CaCi-2 (fluconazole-resistant clinical isolate) + fluconazole, Alamar Blue growth, 48 h | growth inhibition, % (test concentration not listed);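 active = most replicates above 75%; inconclusive = exactly half above 75%; inactive = most below 75%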;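 also: all wells also contain fluconazole at 8 µg/ml as a sub-toxic cotreatment; 0% = median of DMSO wells and 100% = median of geldanamycin control wells; wells of about 8 µL received 7.5 nL stock; the first replicate is given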
rRNA inh HTS – inhibits bacterial ribosomal RNA function over humanized ribosomes | 350,000 tested, 1.6% active | AID 720706 | GFP signal change (wild-type ribosome), % (concentration not given with the values) | E. coli WT GFP vs humanized-ribosome RFP mutants, fluorescence, 24 h; hits give low values; DMSO median 0, no signal -100;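 active = significant combined selectivity score with lowered wild-type GFP, culture density cut under 30%, mutant RFP and density less affected; inactive = any of these conditions unmet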; also: one replicate is shown; some compounds called inactive have numbers as strong as hits
T cruzi inh – blocks replication of Trypanosoma cruzi; T. cruzi beta-gal in NIH3T3, luminescence, 90 h; AID 1885; inhibition, % (no concentration beside the values); 300,000 tested, 1.4% active;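 active = mean inhibition across valid replicates above about 55%, limit read from the data; inconclusive = mean below that limit but half or more replicates reach it; inactive = mean below it, under half of replicates reach it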;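 also: signal also drops with host cell toxicity which is not excluded here; 0% = plate median of DMSO wells and 100% = zero luminescence signal; higher percent means less beta-gal luminescence so fewer parasites; stock transfer was 50 nL into about 50 µL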
FGF22 binding – FGF22 (human) thermal shift binding; recombinant FGF22 thermal shift, SYPRO orange fluorescence; percent of sucrose octasulfate shift, DMSO zero; calls only at 9.99 µM; 340,000 tested, 1.5% active; AID 651658;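 active = melting point raised past a set limit in the mean and every replicate; inconclusive = no clear call; three in four hits are not shown here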
Target sequence (Q9HCT0 whole entry, looked up): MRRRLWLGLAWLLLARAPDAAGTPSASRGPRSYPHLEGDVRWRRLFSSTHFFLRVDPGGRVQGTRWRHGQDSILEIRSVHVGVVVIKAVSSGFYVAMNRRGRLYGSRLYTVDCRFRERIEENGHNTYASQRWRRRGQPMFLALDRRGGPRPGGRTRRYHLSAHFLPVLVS
rRNA inh HTS OD600 – also measured in rRNA inh HTS; calls as there; OD600 change, %; measured here: OD600 growth;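 optical density of the mix in the first replicate; 0 = DMSO median and -100 = no signal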
rRNA inh HTS RFP – also measured in rRNA inh HTS; calls as there; RFP signal change, %; measured here: RFP humanized mutant strains;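 first replicate; 0 = DMSO median and -100 = no signal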
Numbers without * were called inactive; i = inactive; ? = inconclusive; . = no result given; & = joins results of further samples. The list is partial. The share of hits here may be higher or lower than overall.

Results follow in this order: ALR H2O2 inh	Beta cell apopt	AF4-AF9 inh	RanGTP-Impb inh	Calb FLC	rRNA inh HTS	rRNA inh HTS OD600	rRNA inh HTS RFP	T cruzi inh	FGF22 binding
O=[N+]([O-])c1cccc2c([As](=O)(O)O)cccc12
→ -6	1	-4.0	-2.1	-14	3	5	2.3	-8	i
O=C(N/N=C/C1C(=O)NC(=S)N(c2ccccc2)C1=O)c1cc(Br)c(O)c(Br)c1 (configuration not stated)
→ 19	-7	2.3	-0.1	0	-10	-1	-1.2	-19	i
c1ccc(CN2CCN(Cc3ccc4ccccc4c3)CC2)cc1
→ -17	-1	-5.7	-3.3	-6	-5	-12	0.2	38	i
CCC(CO)NC(=O)C1C=C2c3cccc4[nH]cc(c34)CC2N(C)C1 (configuration not stated)
→ .	-4	?	-2.4	.	-36	-66	18	-24	i
O=C1NC(=S)N(c2ccccc2)C(=O)/C1=C/c1ccco1
→ 99*	-4	-12	4.7	1	14	14	4.5	-8	i
ClC1C(Cl)C(Cl)C(Cl)C(Cl)C1Cl (configuration not stated)
→ -17&-4	7&-1	-1.5&-9.7	.	.	4&1	8&5	1.5&0.8	.	i
COc1cc2c(cc1OC)CN(c1ccc([N+](=O)[O-])c(C(F)(F)F)c1)CC2
→ -87	-4	2.8	1.3	-9	-19*	-5.9*	3.5*	-6	i
Cc1ccc([N+](=O)[O-])cc1
→ 6	-8	.	.	.	4	4	-0.6	.	i
COC(=O)N(c1ccccc1)P(=O)(Oc1ccccc1)Oc1ccccc1
→ .	-14	-4.4	3.1	3	-9	-2	7.4	-17	i
O=C(/C=C/c1ccccc1)NC(=S)N1C[C@H]2C[C@H](C1)c1cccc(=O)n1C2
→ 5	0	-3.7	1.5	0	.	.	.	-19	i
Clc1ccccc1N1CCN(Cc2ccc3c(c2)OCO3)CC1
→ 9	-2	13	-2.4	-94	-30	-33	-3.4	-11	i
COc1cc(N2C(=O)CC(=O)NC2=O)cc(OC)c1OC
→ -7	-1	1.1	5.1	1	17	21	2.0	-9	i
NNC(N)=O
→ -2	8	2.7	.	.	6	13	0.0	.	i
COC(=O)C1=CO[C@H](C)[C@H]2CN3CC[C@@]4(C(=O)Nc5ccccc54)[C@@H]3C[C@H]12
→ -25	-1	0.0	?	-7	.	.	.	-2	i
Cc1ccc(-c2ccc(=O)n(CCC(=O)N3CCC4(CC3)OCCO4)n2)cc1
→ .	-35	5.6	1.6	-6	-1	4	-5.3	3	i
CCOC(=O)C1=C(N)OC2=C(C(=O)CCC2)C12C(=O)N(C)c1ccccc12 (configuration not stated)
→ -6	-11	0.8	3.5	-9	7	11	0.5	-9	i
ClCC(Br)CBr (configuration not stated)
→ -2	-3	.	.	.	4	3	0.6	.	i
CC1CCN2c3nc4ccccn4c(=O)c3CC3(C(=O)N(C)C(=O)N(C)C3=O)C2C1 (configuration not stated)
→ -2	0	.	-2.6	-7	.	.	.	-4	.
CCOc1cc2c(cc1OCC)-n1cccc1C(c1ccccc1O)NC2 (configuration not stated)
→ 7	0	19	-1.3	-9	-7	-4	2.6	3	i
Cc1cccnc1-n1c(-c2ccco2)nc2ccccc2c1=O
→ 0	1	.	4.9	0	.	.	.	2	.
CCOc1ccc(N2C(=O)NC(=O)/C(=C\c3ccc(N4CCCCC4)o3)C2=O)cc1
→ .	-11	.	-15	-7	.	.	.	-1	.
CC(C)n1c(O)c(C=NCc2ccccc2)c(=O)[nH]c1=S
→ -3	-3	0.6	3.6	4	-1	-8	1.8	-4	i
Cn1nnc(CC[N+](C)(C)C)n1
→ 2	0	.	-0.3	-2	12	5	-0.1	1	i
NC(=S)c1cn(C2OC(CO)C(O)C2O)c2ncnc(N)c12 (configuration not stated)
→ 37	47	-1.3	11	-7	12	10	-1.4	48	i
Nc1ccc(N=Nc2ccccc2)cc1
→ 98*	1	5.2	0.3	-27	-4	1	-1.0	2	i
Cn1c(O)c(C=NCCN2CCOCC2)c(=O)[nH]c1=S
→ -8	-3	-1.9	-0.5	-6	3	2	-4.9	-4	.
COc1ccc(C(=O)CN2CCOCC2)cc1F
→ -8	-9	.	3.5	-9	.	.	.	3	.
ClCCOCOCCCl
→ 21	-4	.	.	.	-2	2	-0.1	.	i
Nc1c(C(=O)NCc2ccco2)c2nc3ccccc3nc2n1Cc1ccc(F)cc1
→ 57	-10	.	43*	8	.	.	.	43	.
COc1ccc(Cn2c(O)c(/C=N/NC(=O)c3ccccc3O)c(=O)[nH]c2=O)cc1
→ 8	-5	11	2.0	?	0	2	-0.9	-28	i
O=C(CCC(=O)N1C[C@H]2C[C@@H](C1)c1cccc(=O)n1C2)NCc1ccccc1
→ -3	.	-0.3	2.6	-5	17	6	-8.4	26	i
CN1CCC(c2c[nH]c3ccccc23)C1 (configuration not stated)
→ 4	-2	5.0	2.8	1	-23*	3.8*	-8.1*	4	i
CC/C(=N\NC(=O)c1ccccc1)c1c(O)n(C2CCCCC2)c(=O)[nH]c1=O
→ 61	1	-1.7	5.7	0	2	-6	-2.8	-7	i
CCc1cccc(C)c1NC(=S)N1CC2CC(C1)c1cccc(=O)n1C2 (configuration not stated)
→ -6	-8	-1.9	-14	-6	12	11	4.4	-15	i
COc1ccc(C[C@@H]2c3cc(O)c(OC)cc3CCN2C)cc1O
→ 72	-6	-3.0	3.5	-13	0	-2	-9.0	-15	i
O=C(O)C1C2CCC(O2)C1C(=O)Nc1cccc(Br)c1 (configuration not stated)
→ -7	-5	4.7	2.2	0	2	3	-0.5	1	i
COc1ccc(CCn2c(O)c(C=NCc3ccc4c(c3)OCO4)c(=O)[nH]c2=O)cc1OC
→ -1	-1	.	1.1	-11	.	.	.	1	.
COC(=O)C1=C(c2cc3ccccc3o2)C[C@@H]2CC[C@H]1N2C(=O)NCCO
→ .	-5	-1.2	0.8	13	-11	-9	-4.8	-1	i
C=CCN1C(=O)/C(=C/c2cccs2)C(=O)NC1=S
→ 96*	-8	.	0.0	-1	.	.	.	3	.
Cc1ccc(S(=O)(=O)Nc2cc(C(=O)N3CCC4(CC3)OCCO4)ccc2N2CCCCC2)cc1
→ -12	-2	.	2.7	2	.	.	.	26	.
Cc1ccc(C)c(OCC(=O)N2CCN(Cc3ccc4c(c3)OCO4)CC2)c1
→ -43	-15	-1.4	-0.2	-4	-27	-28	1.5	17	i
CC(=O)NNC(=O)CN1C(=O)CN=C(c2ccccc2)c2cc(Br)ccc21
→ -5	2	-0.1	0.0	-1	5	8	-0.1	-4	i
CCc1nc(N2CCNCC2)c(C#N)c2c1CSC(C)(C)C2
→ -3	12	.	-0.8	2	.	.	.	?	.
C[N+]1(C)[C@@H]2CC[C@H]1CC(OC(=O)[C@@H](CO)c1ccccc1)C2 (some centres not stated)
→ -24	-7	-9.5	-3.2	-4	11	13	-0.6	-1	i
O=[N+]([O-])c1cc2c(cc1CNCCc1ccc3c(c1)OCO3)OCO2
→ -2	-2	-0.4	-2.1	-33	2	4	-1.5	2	i
C1=C(CCNCc2ccccc2)CCCC1
→ -6	-3	.	-4.0	2	.	.	.	-5	.
CCN(CC)c1ccc(CNCCc2ccccc2F)cc1
→ 99*	6	16	4.3	-27	-13	-23	2.0	44	.
O=C1NC(=O)N(Cc2ccc(F)cc2)C(=O)/C1=C\c1ccc(N2CCCC2)cc1
→ 24	-7	.	0.0	-19	-22	14	60	-9	i
NCCc1ccccc1
→ -9	-6	0.6	4.0	-7	-6	1	2.0	-27	i
O=c1[nH]cc(COCC(F)(F)C(F)(F)C(F)(F)F)c(=O)[nH]1
→ -7	-2	.	2.6	-9	.	.	.	-7	.
COc1ccc(CNCCc2c(C)[nH]c3ccc(OC(F)(F)F)cc23)c(OC)c1
→ 6	88*	?	-1.5	2	-4	-7	6.3	59*	i
CCN(CC)CCNCc1nc2ccccc2c(=O)n1-c1ccc(F)cc1
→ -1	0	2.2	8.4	?	7	9	3.6	-4	i
C=CCn1c(O)c(C=Nc2ccc(F)cc2)c(=O)[nH]c1=O
→ -7	-5	1.3	-0.1	1	18	10	-0.5	-19	i
N=C1c2ccccc2CN1NC(=O)c1ccc(Br)cc1
→ 4	2	-1.7	4.5	-46	8	2	-3.8	-31	i
CC/C(=N\NC(N)=O)c1c(O)[nH]c(=O)[nH]c1=O
→ .	-1	-0.7	-1.7	1	8	7	-0.7	-14	i
CC(=O)C1C2c3ccccc3OC1(C)N=c1s/c(=C/c3cnn(C)c3)c(=O)n12 (configuration not stated)
→ 3	-1	.	1.9	-8	.	.	.	.	.
COc1ccc(C(=O)CN2CCCCC2)cc1
→ 1	-8	-1.0	.	-4	14	6	-6.1	-17	i
CCC(=NCc1cccnc1)c1c(O)n(-c2ccccc2)c(=O)[nH]c1=O
→ -13	-1	-3.6	2.5	0	21	6	2.1	-10	i
C=CC[C@@H](C)CC(=O)C(CCCN=[N+]=[N-])SOOc1ccccc1 (some centres not stated)
→ -1	1	-1.8	.	.	-18	-15	-9.6	.	i
Nc1c(C(=O)OCC2CCCO2)c2nc3ccccc3nc2n1Cc1cccs1 (configuration not stated)
→ 29	-13	.	?	8	.	.	.	13	.

(more compounds)
Results follow in this order: ALR H2O2 inh	Beta cell apopt	AF4-AF9 inh	RanGTP-Impb inh	Calb FLC	rRNA inh HTS	rRNA inh HTS OD600	rRNA inh HTS RFP	T cruzi inh	FGF22 binding
Fc1ccccc1CCNCc1cccc2ccccc12
→ -3	.	.	-1.8	-2	.	.	.	9	.
CCN1CCN(Cc2cc(Br)ccc2O)CC1
→ 2	-6	.	-0.4	-3	.	.	.	53	.
CC(=NCc1ccco1)c1c(O)n(-c2ccccc2)c(=O)[nH]c1=O
→ 2	2	.	-2.7	-2	.	.	.	-7	.
Cc1cccc(CCNCc2cc3cccc(C)c3[nH]c2=O)c1
→ -22	-3	-4.0	-2.5	-4	-4	-1	-3.7	35	i
C[C@]12CC[C@H](O)C[C@H]1CC[C@@H]1[C@@H]2CC[C@]2(C)[C@@H](C3=CC(=O)OC3)CC[C@]12O
→ -7	-3	-3.6	.	.	.	.	.	.	i
Cc1nn(C2CCOC(C)(C)C2)c2c1C(c1ccc(OC(C)C)cc1)SCC(=O)N2 (configuration not stated)
→ 3	-6	.	0.8	-18	.	.	.	-1	.
O=C(NC(=O)c1c(F)cccc1F)Nc1cc(Cl)c(F)c(Cl)c1F
→ -6	-1	0.3	-3.3	-2	12	11	2.9	-3	i
NC(=O)CN1CC(c2ccccc2)CC1=O (configuration not stated)
→ -7	1	.	-0.1	-5	16	10	0.8	3	.
COC(=O)C1=C(c2ccc(F)cc2OCc2ccccc2)C[C@@H]2CC[C@H]1N2C(=O)NCc1ccc2[nH]ccc2c1
→ 6	10	-0.7	.	.	7	11	8.4	.	i
COc1ccc(N=C(C)c2c(O)n(C)c(=O)n(C)c2=O)c(OC)c1
→ -24	4	.	0.2	?	.	.	.	-9	.
